Assay outcomes from PubChem BioAssay.
rRNA inh HTS: selective bacterial rRNA inhibition in E. coli. E. coli WT GFP vs humanized-ribosome RFP mutants, fluorescence, 24 h; hits give low values; DMSO median 0, no signal -100. GFP signal change (wild-type ribosome), % (concentration not given with the values). 350,000 compounds, 1.6% hits;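 active means significant combined selectivity score with lowered wild-type GFP, culture density cut under 30%, mutant RFP and density less affected; inactive means any of these conditions unmet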; further: one replicate is shown; some compounds called inactive have numbers as strong as hits
rRNA inh HTS OD600: second read-out of rRNA inh HTS, no call of its own (marks repeat the call); OD600 change, %; measured here: OD600 growth;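 optical density of the mix in the first replicate; 0 = DMSO median and -100 = no signal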
rRNA inh HTS RFP: recorded beside rRNA inh HTS, whose call it bears; RFP signal change, %; measured here: RFP humanized mutant strains;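 first replicate; 0 = DMSO median and -100 = no signal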
Starred values were filed as active, the others as inactive.

How did C[C@H]1CN([C@@H](C)CO)C(=O)Cc2cc(NC(=O)C3CCCCC3)ccc2O[C@@H]1CN(C)S(=O)(=O)c1cccs1 do in these assays?
rRNA inh HTS: 3; rRNA inh HTS OD600: 2; rRNA inh HTS RFP: -0.8

What do the screens show for `C[C@H](NC(=O)C[C@H]1C=C[C@@H](NC(=O)Cc2ccccn2)[C@@H](CO)O1)c1ccccc1`?
rRNA inh HTS: 0; rRNA inh HTS OD600: 2; rRNA inh HTS RFP: 0.5

How did COc1ccccc1CN(C)C[C@@H]1OCc2ccccc2-c2ccccc2C(=O)N([C@@H](C)CO)C[C@@H]1C do in these assays?
rRNA inh HTS: -1; rRNA inh HTS OD600: -6; rRNA inh HTS RFP: -0.8

What do the screens show for `CCCCC[C@@H](C)N1C[C@@H](COCc2ccccc2)Oc2cc(N3CCC[C@H]3CO)ccc2S1(=O)=O`?
rRNA inh HTS: -2; rRNA inh HTS OD600: -2; rRNA inh HTS RFP: -0.7

What do the screens show for `CO[C@@H]1CN(C)C(=O)c2ccc(NC(=O)C3CCOCC3)cc2OC[C@@H](C)N(C(=O)c2ccccc2)C[C@H]1C`?
rRNA inh HTS: 2; rRNA inh HTS OD600: 4; rRNA inh HTS RFP: 0.4

How did O=C(Nc1ccccc1F)N[C@H]1CC[C@@H](CCNC(=O)C2CC2)O[C@@H]1CO do in these assays?
rRNA inh HTS: 5; rRNA inh HTS OD600: 10; rRNA inh HTS RFP: -1.7

Results for C[C@@H]1CN([C@H](C)CO)C(=O)c2cc(NS(=O)(=O)c3ccccc3)ccc2O[C@@H](C)CCCCO[C@@H]1CN(C)S(=O)(=O)c1ccc(Cl)cc1 ?
rRNA inh HTS: -3; rRNA inh HTS OD600: -1; rRNA inh HTS RFP: -1.2

Results for CCCNC(=O)N1[C@H](CO)[C@H](c2ccccc2)[C@@H]1CNC(=O)c1ccc(F)cc1 ?
rRNA inh HTS: -8; rRNA inh HTS OD600: -19; rRNA inh HTS RFP: -1.3

How did COCC(=O)Nc1ccc2c(c1)OC[C@@H](C)N(C(=O)c1ccccc1F)C[C@@H](C)[C@H](OC)CN(C)C2=O do in these assays?
rRNA inh HTS: 1; rRNA inh HTS OD600: -2; rRNA inh HTS RFP: 0.6

What do the screens show for `CCOC(=O)C1=CCC(c2ccccc2C(F)(F)F)N(S(=O)(=O)c2ccc(C)cc2)C1` (stereo unspecified)?
rRNA inh HTS: 7; rRNA inh HTS OD600: -1; rRNA inh HTS RFP: -0.9

How did O=C(c1ccccc1)N1CC2(C1)[C@H](c1ccccc1)[C@@H](CO)N2Cc1cccnc1 do in these assays?
rRNA inh HTS: -1; rRNA inh HTS OD600: -1; rRNA inh HTS RFP: -2.9

What do the screens show for `CC(C)NC(=O)N1CC[C@H]2[C@@H]1c1cc(C#Cc3cccnc3)ccc1N(C)[C@H]2CO`?
rRNA inh HTS: -1; rRNA inh HTS OD600: 7; rRNA inh HTS RFP: 1.2

What do the screens show for `CCC(=O)N(C)C[C@H]1Oc2cc(C#C[C@H](C)O)ccc2S(=O)(=O)N([C@@H](C)CO)C[C@H]1C`?
rRNA inh HTS: -1; rRNA inh HTS OD600: 3; rRNA inh HTS RFP: -3.3

Results for O=C(C[C@@H]1C=C[C@H](NC(=O)C2CC2)[C@H](CO)O1)NCc1ccccc1Cl ?
rRNA inh HTS: -1; rRNA inh HTS OD600: 1; rRNA inh HTS RFP: -1.2

Results for CC(=O)Nc1cc(-c2cccc(C(=O)N(C)C)c2)cn2c(-c3ccc(F)c(Cl)c3)cnc12 ?
rRNA inh HTS: -11; rRNA inh HTS OD600: -15; rRNA inh HTS RFP: 3.6

Results for CNC[C@H]1Oc2ccc(NC(=O)Nc3ccccc3)cc2C(=O)N([C@@H](C)CO)C[C@H]1C ?
rRNA inh HTS: 5; rRNA inh HTS OD600: 12; rRNA inh HTS RFP: -1.9

What do the screens show for `CC(C)CC#Cc1cnc2c(c1)C(=O)N([C@H](C)CO)C[C@H](C)[C@H](CN(C)CC1CCOCC1)O2`?
rRNA inh HTS: -2; rRNA inh HTS OD600: -1; rRNA inh HTS RFP: 0.1

What do the screens show for `COc1cccc(NC(=O)N2C[C@@H](O)COC[C@H]3O[C@H](CC(=O)NCc4ccccc4F)CC[C@@H]32)c1`?
rRNA inh HTS: -3; rRNA inh HTS OD600: -5; rRNA inh HTS RFP: -2.3

What do the screens show for `CC(C)NC(=O)N1[C@@H]2c3cccc(=O)n3C[C@H]1[C@H](CO)[C@H]2C(=O)N1CCC(Cc2ccccc2)CC1`?
rRNA inh HTS: -3; rRNA inh HTS OD600: 4; rRNA inh HTS RFP: -1.4

What do the screens show for `O=C(NCC[C@@H]1CC[C@@H](NC(=O)C2CCC2)[C@H](CO)O1)Nc1ccc(Cl)cc1`?
rRNA inh HTS: -27; rRNA inh HTS OD600: -42; rRNA inh HTS RFP: 4.9

Results for C[C@@H]1CCCCO[C@H](CN(C)C(=O)Cc2ccccc2)[C@@H](C)CN([C@H](C)CO)C(=O)c2cc(NC(=O)Cc3ccccc3)ccc2O1 ?
rRNA inh HTS: 0; rRNA inh HTS OD600: -2; rRNA inh HTS RFP: -3.6

What do the screens show for `Cc1ccc(S(=O)(=O)N(C)C[C@H]2OCCCC[C@H](C)Oc3ccc(NC(=O)Nc4ccc(F)cc4)cc3C(=O)N([C@H](C)CO)C[C@H]2C)cc1`?
rRNA inh HTS: 4; rRNA inh HTS OD600: -2; rRNA inh HTS RFP: -0.4

How did CN(C)C(=O)N1CCN(C(=O)[C@H](CCc2ccccc2)NC(=O)[C@H]2O[C@@H](n3cnc4c(N)ncnc43)[C@H](O)[C@@H]2O)CC1 do in these assays?
rRNA inh HTS: 15; rRNA inh HTS OD600: 19; rRNA inh HTS RFP: 4.6

How did COc1ccc(NC(=O)Nc2cccc3c2O[C@@H](CN(C)S(=O)(=O)c2ccc(OC)cc2)[C@H](C)CN([C@H](C)CO)C3=O)cc1 do in these assays?
rRNA inh HTS: -3; rRNA inh HTS OD600: -6; rRNA inh HTS RFP: 2.8

Results for O=C(Nc1ccc(Cl)c(Cl)c1)N[C@@H]1CC[C@H](CCn2cc(C3CCCCC3)nn2)O[C@H]1CO ?
rRNA inh HTS: -46*; rRNA inh HTS OD600: -26*; rRNA inh HTS RFP: -11*

Results for C[C@@H]1CN([C@@H](C)CO)C(=O)c2cc(NC(=O)CCC(F)(F)F)ccc2O[C@@H]1CN(C)Cc1ccc(Oc2ccccc2)cc1 ?
rRNA inh HTS: -5; rRNA inh HTS OD600: -44; rRNA inh HTS RFP: 21

Results for C[C@@H]1CN([C@H](C)CO)C(=O)Cc2cc(NS(=O)(=O)c3cccs3)ccc2O[C@@H]1CN(C)Cc1ccc(C(=O)O)cc1 ?
rRNA inh HTS: 0; rRNA inh HTS OD600: 0; rRNA inh HTS RFP: -1.4

Results for Cc1ccc(S(=O)(=O)N[C@H]2CC[C@@H](CCn3cc(-c4cccnc4)nn3)O[C@H]2CO)cc1 ?
rRNA inh HTS: 0; rRNA inh HTS OD600: 11; rRNA inh HTS RFP: -4.2

What do the screens show for `COCC#Cc1ccc2c(c1)O[C@H](CN(C)S(=O)(=O)c1ccc(C)cc1)[C@H](C)CN([C@@H](C)CO)S2(=O)=O`?
rRNA inh HTS: 0; rRNA inh HTS OD600: -8; rRNA inh HTS RFP: 0.6

What do the screens show for `COc1cccc(NC(=O)N2CC(=O)N3[C@H](CO)[C@@H](c4ccc(C#CCC5CCCC5)cc4)[C@@H]3C2)c1`?
rRNA inh HTS: 1; rRNA inh HTS OD600: 13; rRNA inh HTS RFP: -2.8

What do the screens show for `O=C(Nc1nnc([C@@H]2C[C@H](O)[C@@H](CO)O2)s1)c1c(F)cccc1F`?
rRNA inh HTS: 13; rRNA inh HTS OD600: 22; rRNA inh HTS RFP: 5.9

What do the screens show for `COc1ccccc1CNC(=O)C[C@@H]1C[C@H]2c3cc(NS(C)(=O)=O)ccc3O[C@H]2[C@@H](CO)O1`?
rRNA inh HTS: 2; rRNA inh HTS OD600: 0; rRNA inh HTS RFP: -0.9

What do the screens show for `O=C(c1cccc(F)c1)N1C[C@H]2[C@@H](c3ccccc31)[C@@H](CO)N2Cc1cocn1`?
rRNA inh HTS: 0; rRNA inh HTS OD600: -5; rRNA inh HTS RFP: -2.0

Results for CC(=O)NC(c1ccccc1)c1nc(-c2cc3ccccc3o2)cs1 (stereo unspecified) ?
rRNA inh HTS: 7; rRNA inh HTS OD600: -5; rRNA inh HTS RFP: 0.3

Results for CCCN(C)C[C@@H]1OCc2cnnn2CCCC(=O)N([C@@H](C)CO)C[C@H]1C ?
rRNA inh HTS: 2; rRNA inh HTS OD600: 1; rRNA inh HTS RFP: -2.0

Results for COc1cccc(S(=O)(=O)N2CC[C@H]3[C@H](CO)Nc4ccc(Br)cc4[C@H]32)c1 ?
rRNA inh HTS: -47; rRNA inh HTS OD600: -72; rRNA inh HTS RFP: -7.4

What do the screens show for `C[C@@H]1CN([C@@H](C)CO)C(=O)c2cccc(NC(=O)Nc3ccc(C(F)(F)F)cc3)c2O[C@@H]1CN(C)Cc1ccc2c(c1)OCO2`?
rRNA inh HTS: -5; rRNA inh HTS OD600: -47; rRNA inh HTS RFP: 1.3

What do the screens show for `O=C(Nc1ccc(F)cc1)N1CC(=O)N2[C@H](C1)[C@H](c1ccc(C3=CCCC3)cc1)[C@@H]2CO`?
rRNA inh HTS: -2; rRNA inh HTS OD600: -5; rRNA inh HTS RFP: 0.4

What do the screens show for `Cc1ccc(-c2ccc([C@H]3[C@@H](CO)N4CCCCN(C(=O)c5ccncc5)C[C@@H]34)cc2)cc1`?
rRNA inh HTS: 9; rRNA inh HTS OD600: 8; rRNA inh HTS RFP: 10

What do the screens show for `O=C(c1ccccn1)N1CC(=O)N2[C@@H](CO)[C@H](c3ccc(C#CCc4ccccc4)cc3)[C@@H]2C1`?
rRNA inh HTS: 2; rRNA inh HTS OD600: 10; rRNA inh HTS RFP: -1.6

What do the screens show for `Cc1cccc(S(=O)(=O)N2C[C@@H](O)COC[C@H]3O[C@H](CC(=O)Nc4ccc(-c5ccccc5)cc4)CC[C@@H]32)c1`?
rRNA inh HTS: -2; rRNA inh HTS OD600: -16; rRNA inh HTS RFP: 8.5

Results for C[C@@H]1CN([C@H](C)CO)S(=O)(=O)c2ccc(-c3ccccc3)cc2O[C@H]1CN(C)C(=O)C1CCC1 ?
rRNA inh HTS: -10; rRNA inh HTS OD600: -26; rRNA inh HTS RFP: 3.1

How did Cc1noc(C)c1S(=O)(=O)Nc1ccc2c(c1)CC(=O)N([C@@H](C)CO)C[C@H](C)[C@@H](CN(C)CC1CC1)O2 do in these assays?
rRNA inh HTS: 3; rRNA inh HTS OD600: 10; rRNA inh HTS RFP: 0.7

What do the screens show for `CC(C)NC(=O)Nc1ccc2c(c1)C(=O)N([C@H](C)CO)C[C@@H](C)[C@H](CN(C)C(=O)Nc1ccc(F)cc1)OCCCC[C@@H](C)O2`?
rRNA inh HTS: 2; rRNA inh HTS OD600: 2; rRNA inh HTS RFP: -1.7

Results for COCC#Cc1ccc2c(c1)O[C@H](CN(C)C(=O)C1CCOCC1)[C@@H](C)CN([C@@H](C)CO)S2(=O)=O ?
rRNA inh HTS: -3; rRNA inh HTS OD600: -8; rRNA inh HTS RFP: 0.1

What do the screens show for `CNC(=O)C[C@H]1CC[C@H]2[C@@H](COC[C@H](O)CN2C(=O)c2ccc3c(c2)OCO3)O1`?
rRNA inh HTS: 3; rRNA inh HTS OD600: 4; rRNA inh HTS RFP: 16

What do the screens show for `COCC(=O)N1[C@H](C#N)[C@H](c2ccccc2-c2ccccc2)[C@H]1CO`?
rRNA inh HTS: 1; rRNA inh HTS OD600: 0; rRNA inh HTS RFP: -6.5

Nine entries out of the list, ordered by SMILES length, smallest number first:
What do the screens show for `O=C(c1cccc(F)c1)N1C[C@H]2[C@@H](c3ccccc31)[C@@H](CO)N2Cc1cocn1`?
rRNA inh HTS: 0; rRNA inh HTS OD600: -5; rRNA inh HTS RFP: -2.0

What do the screens show for `CNC(=O)C[C@H]1CC[C@H]2[C@@H](COC[C@H](O)CN2C(=O)c2ccc3c(c2)OCO3)O1`?
rRNA inh HTS: 3; rRNA inh HTS OD600: 4; rRNA inh HTS RFP: 16

Results for O=C(Nc1ccc(Cl)c(Cl)c1)N[C@@H]1CC[C@H](CCn2cc(C3CCCCC3)nn2)O[C@H]1CO ?
rRNA inh HTS: -46*; rRNA inh HTS OD600: -26*; rRNA inh HTS RFP: -11*

What do the screens show for `Cc1ccc(-c2ccc([C@H]3[C@@H](CO)N4CCCCN(C(=O)c5ccncc5)C[C@@H]34)cc2)cc1`?
rRNA inh HTS: 9; rRNA inh HTS OD600: 8; rRNA inh HTS RFP: 10

What do the screens show for `CCC(=O)N(C)C[C@H]1Oc2cc(C#C[C@H](C)O)ccc2S(=O)(=O)N([C@@H](C)CO)C[C@H]1C`?
rRNA inh HTS: -1; rRNA inh HTS OD600: 3; rRNA inh HTS RFP: -3.3

How did COCC(=O)Nc1ccc2c(c1)OC[C@@H](C)N(C(=O)c1ccccc1F)C[C@@H](C)[C@H](OC)CN(C)C2=O do in these assays?
rRNA inh HTS: 1; rRNA inh HTS OD600: -2; rRNA inh HTS RFP: 0.6

What do the screens show for `CC(C)NC(=O)N1[C@@H]2c3cccc(=O)n3C[C@H]1[C@H](CO)[C@H]2C(=O)N1CCC(Cc2ccccc2)CC1`?
rRNA inh HTS: -3; rRNA inh HTS OD600: 4; rRNA inh HTS RFP: -1.4

How did CN(C)C(=O)N1CCN(C(=O)[C@H](CCc2ccccc2)NC(=O)[C@H]2O[C@@H](n3cnc4c(N)ncnc43)[C@H](O)[C@@H]2O)CC1 do in these assays?
rRNA inh HTS: 15; rRNA inh HTS OD600: 19; rRNA inh HTS RFP: 4.6

What do the screens show for `Cc1ccc(S(=O)(=O)N(C)C[C@H]2OCCCC[C@H](C)Oc3ccc(NC(=O)Nc4ccc(F)cc4)cc3C(=O)N([C@H](C)CO)C[C@H]2C)cc1`?
rRNA inh HTS: 4; rRNA inh HTS OD600: -2; rRNA inh HTS RFP: -0.4

An excerpt; rates above refer to the full screens.
